# Bioassay records (PubChem)
# HSD17B inhib: inhibitors of human HSD17B10 dehydrogenase; Q99714; recombinant HSD17B10, NADH fluorescence kinetic; many of its hits are not listed in these tables; Potency, µM (highest dose often 57.1 µM), inactives show at the highest dose activity change, negative = inhibition, actives largely listed as inhibitors; 75,000 compounds, 7.6% hits; AID 893; active means well fitted inhibition curve with a large enough effect; inconclusive means small, poorly fitted or top-dose-only effect; inactive means no such curve, though single readings can be large or run the other way;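 further: the protocol describes HADH2 (HSD17B10) and not the HSD17B4 of the title; nearly all actives have a fitted effect of over 70% in size; most hits overshoot -100% by far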
#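 20 nM HADH2, pH 9.0 Tris/Tween; cpd preinc 15 min RT; start w/ 1 mM NAD+ + 90 uM b-hydroxybutyryl-CoA; kinetic fluor ex360/em450 q30s x 4 min; delta last-first.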
# Numbers without * were called inactive; ? = inconclusive; & = joins results of further samples; [ ] = dose if it differs, or a comment. On the % scale 0 is the no-effect control and ±100 the full control effect; potency means the concentration at half of the fitted maximal effect.
1: CC[N+](CC)(CCCNC1=CC(=O)C(NCCC[N+](CC)(CC)Cc2ccccc2)=CC1=O)Cc1ccccc1
  HSD17B inhib = -13%
2: c1cncc(CNC2=NCCC2)c1
  HSD17B inhib = 5%
3: CCCOC(=O)c1ccccc1C(=O)OCCC
  HSD17B inhib = -5%
4: CN(C)C1C(=O)C(C(N)=O)=C(O)[C@@]2(O)C(=O)C3=C(O)c4c(O)cccc4[C@](C)(O)C3C(O)C12 (stereo partly specified)
  HSD17B inhib = 10µM*
5: CC(NC(=O)Oc1ccccc1)C(c1cccs1)N1CCOCC1 (stereo unspecified)
  HSD17B inhib = 9%
6: CCn1nc(-c2cccs2)nc2c(=O)n(C)c(=O)nc1-2
  HSD17B inhib = 25µM*
7: NP(N)(=O)NC(=O)c1ccc(F)cc1
  HSD17B inhib = -6%
8: CC[C@]1(OC(=O)CN)C(=O)OCc2c1cc1n(c2=O)Cc2cc3ccccc3nc2-1
  HSD17B inhib = 4µM*
9: CCCn1c(=O)c2[nH]c(C3CCCC3)nc2n(CCCOC(=O)c2ccc(S(=O)(=O)F)cc2)c1=O
  HSD17B inhib = -3%
10: CN1C(=O)N(C)C(=O)C(CCc2ccncc2)(Cc2ccc3c(c2)OCO3)C1=O
  HSD17B inhib = 1%
11: N=C(N)SCc1ccc(Cl)c2ccccc12 (tested in a mixture with another compound)
  HSD17B inhib = 6%&7%[11.4 µM]
12: CN1[C@@H](C[C@@H](O)c2ccccc2)CCC[C@@H]1C[C@H](O)c1ccccc1
  HSD17B inhib = -1%[25.6 µM]
13: CN(C)P(=NC(=S)c1cccn1C)(N(C)C)N(C)C
  HSD17B inhib = -15%
14: ClCc1ccccn1
  HSD17B inhib = 1%
15: CNC(=O)[C@H]1C[C@@H]1[C@H](NP(=O)(c1ccccc1)c1ccccc1)c1ccccc1
  HSD17B inhib = -3%
16: CCC1(C2=NCCN2)Cc2ccccc2O1 (stereo unspecified)
  HSD17B inhib = 2%
17: COc1cc(CN2C(=O)NC(=O)C3(Cc4cc(C)ccc4N(C)C3)C2=O)cc(OC)c1 (stereo unspecified)
  HSD17B inhib = 4%
18: O=C1C=C2C(=CCOC2O)O1 (stereo unspecified)
  HSD17B inhib = -2%
19: CCN1C[C@@]2(COC)[C@H]3[C@@H](OC)[C@H]4C1[C@@]3([C@H](OC)C[C@@H]2O)[C@H]1C[C@@]2(O)[C@@H](OC(=O)c3ccccc3)[C@@H]1[C@@]4(OC(C)=O)[C@H](O)[C@@H]2OC
  HSD17B inhib = 3%[25.6 µM]
20: Cc1ccc(CC2C(=O)N(C)C(=O)N(C)C2=O)s1
  HSD17B inhib = -11%
21: O=C(COc1ccccc1)N1CCN(CC2CC3C=CC2C3)CC1 (stereo unspecified)
  HSD17B inhib = 1%
22: COC1=CC(=O)O[C@@H](/C=C/c2ccc3c(c2)OCO3)C1
  HSD17B inhib = 1%
23: CN1C2CC(OC(=O)C(CO)c3ccccc3)CC1C(O)C2 (stereo unspecified)
  HSD17B inhib = 2%
24: CC(=O)N1CC[N+](C)(C)CC1
  HSD17B inhib = -6%
25: C1CC2OC2CC1C1CO1 (stereo unspecified)
  HSD17B inhib = 6%

# The final 7 records of the part above are carried over, then new ones follow:
19: CCN1C[C@@]2(COC)[C@H]3[C@@H](OC)[C@H]4C1[C@@]3([C@H](OC)C[C@@H]2O)[C@H]1C[C@@]2(O)[C@@H](OC(=O)c3ccccc3)[C@@H]1[C@@]4(OC(C)=O)[C@H](O)[C@@H]2OC
  HSD17B inhib = 3%[25.6 µM]
20: Cc1ccc(CC2C(=O)N(C)C(=O)N(C)C2=O)s1
  HSD17B inhib = -11%
21: O=C(COc1ccccc1)N1CCN(CC2CC3C=CC2C3)CC1 (stereo unspecified)
  HSD17B inhib = 1%
22: COC1=CC(=O)O[C@@H](/C=C/c2ccc3c(c2)OCO3)C1
  HSD17B inhib = 1%
23: CN1C2CC(OC(=O)C(CO)c3ccccc3)CC1C(O)C2 (stereo unspecified)
  HSD17B inhib = 2%
24: CC(=O)N1CC[N+](C)(C)CC1
  HSD17B inhib = -6%
25: C1CC2OC2CC1C1CO1 (stereo unspecified)
  HSD17B inhib = 6%
26: COc1ccc(N2CCN(CCCN)CC2)cc1
  HSD17B inhib = 32%[activator]
27: O=C(Nc1ccc([As](=O)(O)O)cc1)Nc1cccc(Cl)c1Cl
  HSD17B inhib = 8%[11.4 µM]
28: O=C(O)[C@H](Cc1cnc[nH]1)N1C(=O)c2ccccc2C1=O
  HSD17B inhib = -3%[11.4 µM]
29: CC1C(=O)OC2C(O)C34C5OC(=O)[C@@]3(OC3OC(=O)[C@H](O)[C@]34C(C(C)(C)C)C5O)[C@]12O (stereo partly specified)
  HSD17B inhib = 1%
30: C=CCn1c(O)c(C(=O)CCCCCC)c(=O)[nH]c1=O
  HSD17B inhib = 5%
31: O=C1CC(N2CCC(n3c(=O)[nH]c4ccccc43)CC2)C(=O)N1c1ccc(F)cc1 (stereo unspecified)
  HSD17B inhib = ?
32: C=CCc1c(C)[nH]c(=S)c(C#N)c1C
  HSD17B inhib = ?
33: N#CCCCC[N+]12CN3CN(CN(C3)C1)C2
  HSD17B inhib = 1%[11.4 µM]
34: NC(N)=NCCCCCCCCCCN=C(N)N
  HSD17B inhib = -5%
35: COc1ccccc1N1CCN(Cc2c(F)cccc2Cl)CC1
  HSD17B inhib = -6%
36: CC1=C(O)C(=O)C=C2C1=CC=C1[C@]2(C)CC[C@@]2(C)C3C[C@](C)(C(=O)O)CC[C@@]3(C)CC[C@@]12C (stereo partly specified)
  HSD17B inhib = 5µM*
37: Fc1cccc(F)c1CN1CCN(Cc2c(F)cccc2F)CC1
  HSD17B inhib = -6%
38: Cc1nc2cc(C(=O)N3CCC4(CC3)OCCO4)ccc2n1-c1ccc(Br)cc1
  HSD17B inhib = -3%
39: CC12CN3C(O)C(C)(C1)CC(C)(C2)C3O (stereo unspecified)
  HSD17B inhib = 7%
40: COC(=O)[C@@H]1C[C@@]2(O)[C@H](O)[C@H](O)[C@H](O)C[C@H]2N1Cc1cccnc1
  HSD17B inhib = 7%
41: C/C=C1/CN2CC[C@]34C(=C(C=O)[C@H]1C[C@@H]23)Nc1ccccc14
  HSD17B inhib = -1%
42: O=C(Nc1ccccc1OC(=O)N1CCCCC1)N1CCCCC1
  HSD17B inhib = 4%
43: O=C(CN1C(=O)CCSc2ccccc21)N1CCC2(CC1)OCCO2
  HSD17B inhib = -1%
44: O=C1OCCC1NC1=NCCC1 (stereo unspecified)
  HSD17B inhib = 4%
45: COc1ccc2c(c1)[C@@]13CCCCC1[C@@H](C2)N(C)CC3 (stereo partly specified)
  HSD17B inhib = -2%
46: CCOP(=O)(C#CC(C)(C)C)C1(O)CCCCC1 (stereo unspecified)
  HSD17B inhib = 7%
47: CN(CC1COc2ccccc2O1)c1nc(-c2cccnc2)nc2ccccc12 (stereo unspecified)
  HSD17B inhib = ?
48: O=C1CCO1
  HSD17B inhib = -4%
49: O=C(Cn1cnc2sc3c(c2c1=O)CCCC3)NCCC(=O)N1CCC2(CC1)OCCO2
  HSD17B inhib = 0%
50: COC(=O)[C@H](N)CCCN=C(N)N[N+](=O)[O-]
  HSD17B inhib = 6%

# Arranged by length of the SMILES (highest first): part of the list above.
47: CN(CC1COc2ccccc2O1)c1nc(-c2cccnc2)nc2ccccc12 (stereo unspecified)
  HSD17B inhib = ?
43: O=C(CN1C(=O)CCSc2ccccc21)N1CCC2(CC1)OCCO2
  HSD17B inhib = -1%
30: C=CCn1c(O)c(C(=O)CCCCCC)c(=O)[nH]c1=O
  HSD17B inhib = 5%
39: CC12CN3C(O)C(C)(C1)CC(C)(C2)C3O (stereo unspecified)
  HSD17B inhib = 7%
26: COc1ccc(N2CCN(CCCN)CC2)cc1
  HSD17B inhib = 32%[activator]

# In the list so far, 4 contain an aryl methoxy group:
17: COc1cc(CN2C(=O)NC(=O)C3(Cc4cc(C)ccc4N(C)C3)C2=O)cc(OC)c1 (stereo unspecified)
  HSD17B inhib = 4%
26: COc1ccc(N2CCN(CCCN)CC2)cc1
  HSD17B inhib = 32%[activator]
35: COc1ccccc1N1CCN(Cc2c(F)cccc2Cl)CC1
  HSD17B inhib = -6%
45: COc1ccc2c(c1)[C@@]13CCCCC1[C@@H](C2)N(C)CC3 (stereo partly specified)
  HSD17B inhib = -2%

# As entered above.
# In HSD17B inhib, no. 38 is listed with -3%
# In HSD17B inhib, no. 45 is listed with -2%
# In HSD17B inhib, no. 49 is listed with 0%
# In HSD17B inhib, no. 44 is listed with 4%

# Carrying on.
entry | molecule | HSD17B inhib
51 | N#CC(C#N)=Cc1ccc([N+](=O)[O-])c(O)c1 | ?
52 | CN1C(=O)CCS(=O)(=O)[C@H]1c1ccc(Cl)cc1 | -17%
53 | OC(c1ccc(Cl)cc1)(c1ccc(Cl)cc1)C(Cl)(Cl)Cl | -6%
54 | CCCCn1c(O)c(C(C)=NCCCN(C)C)c(=O)[nH]c1=O | 15%
55 | O=[N+]([O-])c1cccc2ccccc12 | -1%
56 | C=COCCn1c(C)c(C(=O)OCC)c2cc(O)ccc21 | 12%
57 | O=c1c2ccccc2[se]n1-c1ccccc1 | 0.79µM*
58 | C=CCn1c(O)c(C(C)=Nc2ccc(N(CC)CC)cc2)c(=O)[nH]c1=O | -6%
59 | C[C@@]12CCC(OS(=O)(=O)O)C[C@@H]1CCC1C2CC[C@]2(C)C(=O)CCC12 (stereo partly specified) | -6%
60 | C=CCN1CCC2(C)c3cc(O)ccc3C[C@H]1[C@H]2C | -5%&-3%&-3%
61 | O=C(Cn1ncc2c3ccccc3n(Cc3cccc(Cl)c3)c2c1=O)N1CCC2(CC1)OCCO2 | ?
62 | CCOC(=O)C1=C(N)OC(C)=C(C(=O)OCCOC)C12C(=O)Nc1ccccc12 (stereo unspecified) | -2%
63 | c1cncc([C@H]2CCCCN2)c1 | -6%
64 | CC(C)N1CC=C(c2c[nH]c3ccccc23)CC1 | -14%
65 | O=C(Cn1cc(C(=O)c2ccccc2F)c2ccccc21)NCc1ccco1 | 3%
66 | c1ccc2c(CCNC3=NCCC3)c[nH]c2c1 | 17%
67 | CCCCCCC(C)OC(=O)COc1ccc(Cl)cc1Cl (stereo unspecified) | 2%
68 | C[N+]1([O-])[C@@H]2CC[C@H]1CC(OC(=O)[C@@H](CO)c1ccccc1)C2 (stereo partly specified) | 8%[25.6 µM]
69 | CC1(C)CSC(Nc2ccc(F)c(Cl)c2)=N1 | 7%
70 | O=C(NC1(C(F)(F)F)Oc2ccc(Cl)cc2O1)N1CCC2(CC1)OCCO2 (stereo unspecified) | ?
71 | O=C(c1csc2c1CCCCC2)N1CCC2(CC1)OCCO2 | 4%
72 | CC(C)(C)OOC(C)(C)C | -6%
73 | COc1ccc(S(=O)(=O)NC(CC(=O)N2CCC3(CC2)OCCO3)c2ccco2)cc1 (stereo unspecified) | 3%
74 | CSC1=NP(=S)(SC)N2CCCC2=C1C#N (stereo unspecified) | 11%
75 | CC(N)Cc1ccc(O)cc1 (stereo unspecified) | 0%
76 | NC[C@H](O)c1cc(O)c(O)cc1F | 31%[activator]
77 | CN(CCC(=O)O)C1=Nc2ccc(Cl)cc2C(c2ccccc2)=[N+]([O-])C1 | 0%[11.4 µM]
78 | Cc1cc(Cl)ccc1O | 3%
79 | O=C(CCCn1c(=O)[nH]c2cc(Cl)ccc2c1=O)N1CCC2(CC1)OCCO2 | -6%
80 | O=S(=O)(O)c1ccc(O)c2ncccc12.O=S(=O)(O)c1ccc(O)c2ncccc12.[Zn] | ?
81 | CN1CSC(=S)N(C)C1 | 5%&-1%
82 | CC(=NCCCN1CCCCC1)c1c(O)n(Cc2ccccc2)c(=O)[nH]c1=O | 4%
83 | CCN1c2nc3ccccn3c(=O)c2CC2(C(=O)N(C)C(=O)N(C)C2=O)C1C (stereo unspecified) | 7%
84 | O=C(CC[N+](=O)[O-])OCC1OC(O)C(OC(=O)CC[N+](=O)[O-])[C@@H](OC(=O)CC[N+](=O)[O-])C1OC(=O)CC[N+](=O)[O-] (stereo partly specified) | -7%
85 | NC(N)=NOCCC(N)C(=O)O (stereo unspecified) | 4%&2%
86 | CCCCn1c(C)c(C(=O)OCC)c2c(CN3CCOCC3)c(O)ccc21 | -4%
87 | O=c1[nH]c(=O)n(Cc2ccco2)c(O)c1C=NCc1cccs1 | -22%
88 | CP(=O)(O)C1=CCNCC1 | 5%
89 | Oc1cc2c(cc1CN1CCN(c3ccccc3)CC1)CCC2 | 3%
90 | CCn1c(=O)n(CC(=O)N2CCC3(CC2)OCCO3)c(=O)c2ccccc21 | -25%
91 | COc1ccc(NC(=O)CN2C3CCC2CC(O)(c2cccnc2)C3)cc1OC (stereo unspecified) | 1%
92 | CN(C)C(=O)Oc1ccc(C(=O)c2ccccc2)cc1 | -1%
93 | N=Cc1c(O)n(-c2cccc(Cl)c2)c(=O)[nH]c1=O | 7%
94 | Cc1cccc(N2C(=O)NC(=O)C3(Cc4cc(C)ccc4N(C)C3)C2=O)c1 (stereo unspecified) | -3%
95 | CCCCn1c(O)c(C=NCCCN(CC)CC)c(=O)[nH]c1=O | 14%
96 | O=C(NC(=O)c1c(F)cccc1F)Nc1cc(Cl)c(OC(F)(F)C(F)C(F)(F)F)cc1Cl (stereo unspecified) | 6%
97 | CCC[C@@](C)(COC(N)=O)COC(=O)NC(C)C | 0%[25.6 µM]
98 | CCc1cccc(C)c1N(C(=O)CCl)C(C)COC (stereo unspecified) | 1%
99 | C[Se]C[C@@H](N)C(=O)O | -8%
100 | O=C1CC(C(=O)N2CCC3(CC2)OCCO3)CN1CCc1ccccc1 (stereo unspecified) | -5%
101 | CCCCCCn1c(O)c(C=NC2CCCCC2N)c(=O)[nH]c1=O (stereo unspecified) | 3%

# These rows are one share of the data; rates above refer to the full screens.
